# Bioassay records deposited in PubChem BioAssay by Broad Institute.
# STK33 inh = blocks human STK33 kinase activity. hit rate 0.073% among 320,000. purified STK33, MBP phosphorylation, ADP-Glo luminescence. AID 2661. Q9BYT3. inhibition, % at 10 µM;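 active means inhibition at or above 25%, using the most active replicate where run in duplicate; inactive means inhibition below 25%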
# Target sequence (Q9BYT3 whole entry, looked up): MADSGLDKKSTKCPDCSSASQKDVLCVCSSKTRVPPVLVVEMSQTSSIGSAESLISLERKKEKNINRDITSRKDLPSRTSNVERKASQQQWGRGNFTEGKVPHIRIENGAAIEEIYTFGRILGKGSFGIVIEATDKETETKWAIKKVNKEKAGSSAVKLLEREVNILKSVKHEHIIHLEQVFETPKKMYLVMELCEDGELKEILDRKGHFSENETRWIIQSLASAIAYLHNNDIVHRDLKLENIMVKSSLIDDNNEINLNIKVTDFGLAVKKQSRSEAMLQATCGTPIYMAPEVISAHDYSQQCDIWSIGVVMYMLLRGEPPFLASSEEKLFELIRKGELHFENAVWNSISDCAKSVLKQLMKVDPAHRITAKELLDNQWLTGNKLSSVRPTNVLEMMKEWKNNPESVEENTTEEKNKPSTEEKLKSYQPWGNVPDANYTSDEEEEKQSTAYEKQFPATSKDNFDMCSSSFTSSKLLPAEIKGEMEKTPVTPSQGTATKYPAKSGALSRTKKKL
# The depositor's hits bear a star.
SMILES,STK33 inh
CC(NCc1ccc2c(c1)OCO2)C(=O)NC1CCCc2ccccc21 (configuration not stated),-0.6
Cc1ccc(S(=O)(=O)N2CCOCC2)c(C)c1NS(C)(=O)=O,-3.5
CN=c1nc(-c2ccccc2)n(-c2ccccc2)s1,1.3
COC(=O)/C(=C/c1ccc(F)cc1)NC(C)=O,-1.4
COc1ccc(/C=C/C(=O)Nc2nc(N)n(-c3ccccc3)n2)cc1,6.2
CCOCCCNC(=S)N(CCO)Cc1cc2cc3c(cc2[nH]c1=O)OCCO3,-2.1
CCOC(=O)CNS(=O)(=O)c1c(C)noc1C,-0.5
Nc1ccc(-c2nc3c(ccc4ccccc43)[nH]2)cc1,0.5
O=C(Nc1ncn[nH]1)c1ccc([N+](=O)[O-])cc1[N+](=O)[O-],-2.1
O=C(c1ccccc1)N1CCN(CC(O)COc2ccc(Br)cc2)CC1 (configuration not stated),3.3
O=C(NCCN1CCCCC1)c1ccco1,1.3
COc1ccccc1CNC(=O)COC(=O)/C=C/c1ccc(OC(F)F)c(OC)c1,-1.2
CC(C)CNC(=O)c1ccc(Cl)c(Cl)c1,-1.1
CCCCn1c(SCC(N)=O)nnc1-c1ccco1,-1.7
COCCOC(=O)C1=C(C)N=C2SCCC(=O)N2C1c1cccs1 (configuration not stated),0.1
O=C(Nc1ccc2c(c1)OCCO2)N1CCOCC1,-0.9
O=C(CN1CCOCC1)Nc1ccc(-c2nc3ccccc3[nH]2)cc1,0.0
Cc1ccc(/C=C2\Oc3cc(OCC(=O)NN)ccc3C2=O)o1,-1.5
Fc1ccccc1Cn1nnc2c(-n3ccnc3)ncnc21,2.7
CCOC(=O)c1sc2nc(Cc3ccc(Cl)cc3)[nH]c(=S)c2c1C,0.6
Cc1ccc(Cn2c(=O)c3ccccc3n3c(CCC(=O)NCCN4CCOCC4)nnc23)cc1,-0.5
COc1cc2c(cc1NC(C)=O)CCCC2,-1.1
Cn1ccnc1SCC(=O)Nc1ccc(Cl)cn1,-0.6
CC1CCN(c2nc3ccccc3nc2C(C#N)C(=O)OC2CCCCC2)CC1 (configuration not stated),-3.0
O=[N+]([O-])c1ccc(Oc2ccc(-c3cnc4ccccc4n3)cc2[N+](=O)[O-])cc1,-0.4

# An excerpt of these results, with bars between the fields:
molecule | STK33 inh
COCCOC(=O)C1=C(C)N=C2SCCC(=O)N2C1c1cccs1 (configuration not stated) | 0.1
O=C(Nc1ccc2c(c1)OCCO2)N1CCOCC1 | -0.9
O=C(CN1CCOCC1)Nc1ccc(-c2nc3ccccc3[nH]2)cc1 | 0.0
Cc1ccc(/C=C2\Oc3cc(OCC(=O)NN)ccc3C2=O)o1 | -1.5
Fc1ccccc1Cn1nnc2c(-n3ccnc3)ncnc21 | 2.7

# The results go on.
SMILES,STK33 inh
O=C(Nc1ccccc1)C1=C[C@H](c2coc3ccccc3c2=O)C[C@H](OCCCCO)O1,-0.9
COCCNC(=O)/C(C#N)=C/c1ccccc1Br,-0.4
COc1ccc(CCN2C(=O)C3CC=C(C)CC3C2=O)cc1OC (configuration not stated),-0.9
CC1CCN(S(=O)(=O)N2CCN(C(=O)c3ccc4c(c3)OCO4)CC2)CC1,-0.1
CCOC(=O)c1ccc2[nH]c(C)c(C)c2c1,0.4
COc1cc(NC(=O)c2cccnc2)c(OC)cc1NC(=O)c1ccc(Br)cc1,0.1
CCc1ccc(C(=O)NNC(=O)CN2C(=O)NC(CC)(c3ccccc3)C2=O)cc1 (configuration not stated),-0.8
CCN1C(=O)C2(C(C#N)=C(N)Oc3n[nH]c(-c4ccc(Cl)cc4)c32)c2ccccc21 (configuration not stated),-1.5
CCC(=O)N1CCc2cc(Br)cc(S(=O)(=O)N3CCN(C(=O)c4ccco4)CC3)c21,0.2
COC(=O)c1oc(-c2ccc(Cl)cc2)nc1C,-3.0
CCC(C(=O)NC1CCCC1)N(Cc1ccc2c(c1)OCO2)C(=O)c1snc(C(N)=O)c1N (configuration not stated),-2.3
CN(Cc1ccc(F)cc1)C(=O)CNC(=O)c1ccc2c(c1)OCO2,-3.2
CN(C)c1nc(OCCNC(=O)Nc2ccccc2)nc(N(C)C)n1,0.2
CCS(=O)(=O)Nc1ccc(-c2nc3cccnc3s2)cc1,2.0
COc1ccccc1C(C)NCC(=O)NC(=O)NCc1ccco1 (configuration not stated),-0.3
CC(C)CC1NC(=O)N(CC(=O)N2CCN(S(=O)(=O)c3ccc(Cl)cc3)CC2)C1=O (configuration not stated),-1.0
Cc1ccc(C(=O)N2CCCC(N(C)Cc3ccccc3)C2)s1 (configuration not stated),-1.2
O=C1NC2=C(CCc3ccccc32)C(c2ccccc2)N1 (configuration not stated),1.9
COc1ccc(COC(=O)c2c(C)nn(-c3ccccc3)c2Cl)cc1,-2.0
O/N=C(/c1ccc(Cl)cc1)C1CC1c1ccccc1 (configuration not stated),-1.7
NC(=O)C1(N2CCCCC2)CCN(Cc2ccccc2Cl)CC1,-2.0
O=C(NNC1=NCCC1)c1cccc(S(=O)(=O)N2CCCC2)c1,-1.5
CN(C)CCNC(=O)Cn1nc(-c2ccc(Cl)cc2)ccc1=O,1.2
O=S(=O)(N/N=C\c1ccc2c(c1)OCO2)c1ccc(F)cc1,-0.1
N#Cc1cccc(-n2nnnc2-c2ccccn2)c1,0.6

# Two of these compounds in another layout.
Compound | STK33 inh
O=C1NC2=C(CCc3ccccc32)C(c2ccccc2)N1 (configuration not stated) | 1.9
CC(C)CC1NC(=O)N(CC(=O)N2CCN(S(=O)(=O)c3ccc(Cl)cc3)CC2)C1=O (configuration not stated) | -1.0

# Other entries follow.
SMILES,STK33 inh
O=C(N/N=C\c1ccc([N+](=O)[O-])o1)c1cncc(Br)c1,5.7
CCCCNC(=O)CC(=O)Nc1ccccc1C(=O)O,-1.5
CCN(CC)CCC#CC1(O)c2ccccc2-c2ccccc21,-2.2
O=C(O)c1cc(-c2ccc(/C=C3\NC(=O)N(c4ccc(Cl)cc4)C3=O)o2)ccc1Cl,0.9
NS(=O)(=O)OCC(Cc1ccccc1)N1C(=O)c2ccccc2C1=O (configuration not stated),-0.6
N#Cc1c(SCC(=O)Nc2nncs2)sc2c(O)cc(=O)[nH]c12,-0.5
Cc1cc(NC(=O)CSc2nc3ccccc3n2CC(=O)N2CC(C)CC(C)C2)no1 (configuration not stated),-1.5
COC(=O)Cc1c(OC)ccn(CCc2c[nH]c3ccccc23)c1=O,-2.4
CCCCOc1ccc(Cl)cc1CSc1nnc(C)n1N,0.5
C=C(C)COc1ccc2oc(C)c(C(=O)OCCOC)c2c1,1.0
COCCCNS(=O)(=O)c1ccc2c(c1)CCN2C(C)=O,-0.3
O=C(c1cccc(F)c1)N1CCN(Cc2c[nH]c3ccccc23)CC1,-2.6
Nc1nc(-c2ccccc2)nc2sc3c(c12)CCCC3,-2.7
O=C(Cn1c(=O)c2cccn2c2ccccc21)Nc1cc(F)ccc1F,-1.2
Cc1ccc(CSCC(=O)NCCc2ccccc2)cc1,-0.9
COc1ccc2nc(C)cc(N3CC(C)OC(C)C3)c2c1 (configuration not stated),1.8
N#Cc1cnn2c(-c3ccccc3)ccnc12,-2.9
O=C(c1ccoc1)N1CCC2(CCCN(Cc3ccc(F)c(F)c3)C2)C1 (configuration not stated),-0.1
O=C(O)c1ccc(Sc2nnc(-c3cccc(Br)c3)o2)c([N+](=O)[O-])c1,-2.3
O=C(CNCc1ccc(F)cc1)Nc1ccc(C(=O)N2CCCCC2)cc1,0.3
COc1ccc(OC)c2sc(NC(=O)c3ccc(Br)s3)nc12,-1.1
COc1ccc2cc(S(=O)(=O)NCc3cccnc3)ccc2c1,-1.5
CC(=O)Nc1nc(-c2ccc(Cl)cc2)nc(C)c1C(C)=O,-4.2
CCOC(=O)c1cn(-c2ccccc2CO)c2c(F)c(F)c(F)cc2c1=O,-1.4
Nc1nc(Cl)cc(=O)n1Cc1ccc(Cl)cc1,0.7
# (continued)
SMILES,STK33 inh
CC(C)(C)c1ccc(C(=O)Nc2ccccc2C(=O)NCCN2CCOCC2)cc1,-1.5
O=C(COC(=O)C1CCN(c2ccc(C(F)(F)F)cn2)CC1)c1ccc(F)cc1,0.4
CC1=NN(C(=O)c2ccc(C)cc2)C(O)(C(F)(F)OC(F)(F)F)C1 (configuration not stated),-2.0
CCOC(=O)c1c(C)[nH]c(C)c1C(=O)CSc1nc2ccccc2c(=O)n1-c1ccc(CC)cc1,-2.8
CC(=O)Nc1ccc(NC(=O)C(C)OC(=O)C2CC3C=CC2C3)cc1 (configuration not stated),-0.2
COc1ccccc1/C=C1\SC(=S)N(CCC(=O)Nc2nnc(C)s2)C1=O,-0.2
Cc1n[nH]c(C)c1CCOc1ccc(C(C)C)cc1,0.4
CCCCSc1nsc(NC(C)=O)n1,-1.8
CCOc1ccc(N/C(C)=C\C(=O)c2ccc3c(c2)OCCO3)cc1,-0.2
CN1CCN(C(=O)CSc2nc(-c3ccco3)cc(C(F)(F)F)n2)CC1,0.4
COc1cccc(N=Nc2c(=O)[nH]n3c(C)cc(C)nc23)c1,-0.3
CCOc1cc(C#N)c(NC(=O)c2cccnc2Cl)cc1OCC,0.6
CCCc1nn(C)c2c(=O)[nH]c(-c3ccccc3OCC)nc12,-2.3
NC(=O)c1cccnc1Nc1ccccc1F,-0.1
COc1ccc(N2CCN(C(=O)Cc3coc4cc(C)ccc34)CC2)cc1,-0.3
Cc1ccc(C)c(N2CCN(CCCc3ccccc3)CC2)c1,0.1
Cc1ccc(S(=O)(=O)N2CC3(C)CN(S(=O)(=O)c4ccc(C)cc4)CC(C)(C2)C3O)cc1 (configuration not stated),0.7
COc1ccc(NS(=O)(=O)c2ccc(NS(=O)(=O)c3ccc(C)cc3)cc2)nn1,-0.2
COc1ccc(C(=O)N2CCN(Cc3cc(OC)ccc3OC)CC2)cc1,-1.0
CCOC(=O)[C@@H]1[C@H]2COc3cc(OC)ccc3[C@@H]2N2C(=O)N(c3ccc(Cl)cc3)C(=O)[C@@]12C,-0.8
COc1ccc(CNCCCSc2ncccn2)c(OC)c1,-0.5
COC(=O)[C@@H](Cc1ccccc1)NC(=O)NCCc1c[nH]c2ccccc12,0.1
O=C(/C=C/c1ccccc1)NC(=S)NNC(=O)c1cccnc1,1.9
C[C@@H]1C[C@H]2[C@@H]3C[C@H](F)C4=CC(=O)C=C[C@]4(C)[C@@]3(Cl)[C@@H](O)C[C@]2(C)[C@H]1C(=O)COC(=O)C(C)(C)C,7.9
CC12CCC(C(=O)NC3CCCC3)(CC1=O)C2(C)C (configuration not stated),-5.5
# Following part.
SMILES,STK33 inh
CCCCNC(=O)/C(=C/c1ccco1)NC(=O)c1ccco1,-0.6
Cc1cc(C)n(-c2ccc(C(=O)Nc3ccc4c(c3)OCCO4)cc2)n1,0.3
COc1ccc(-c2cc(C)no2)cc1S(=O)(=O)Nc1ccccc1,1.0
COC(=O)CSc1nnc(NC(=O)C2CC(=O)N(c3ccc(F)cc3)C2)s1 (configuration not stated),-0.5
CCOC(=O)N1CCN(C(=O)c2ccc(N3CC4CC(C3)c3cccc(=O)n3C4)c(NC(=O)c3ccc(F)cc3)c2)CC1 (configuration not stated),1.0
CC(=O)OC12CC3CC(C1)C(=NO)C(C3)C2,-1.1
c1ccc2c(NC3C4CC5CC(C4)CC3C5)nc(N3CCOCC3)nc2c1 (configuration not stated),3.4
O=C(CCCOc1ccccc1)N1CCc2ccccc2C1,0.4
CCN(CC(=O)Nc1c(F)cccc1F)C(=O)c1ccc2ccccc2n1,-1.8
CC(C)N1C(=O)CCC1C(=O)N1CCN(c2ccccn2)CC1 (configuration not stated),-0.7
CC(C)(C)S(=O)(=O)/C(C#N)=N/Nc1ccc(S(C)(=O)=O)cc1,-1.1
Cc1nn(C)cc1S(=O)(=O)N1CCN(c2ccc(F)cc2)CC1,-2.4
Cc1cc(C)c2nc(NC(=O)c3ccc4c(c3)OCO4)sc2c1,-5.8
Cc1[nH]nc(S(=O)CC(=O)O)c1[N+](=O)[O-] (configuration not stated),-0.6
Cn1c(SCC(=O)N/N=C/c2cccs2)nc2ccccc21,0.2
C=CC#CC1(O)CC(C)N(C)CC1C (configuration not stated),-1.2
CCN(C(=O)COC(=O)/C(=C/c1ccccc1)n1nnnc1C)C1CCCCC1,0.0
Cc1ncc([N+](=O)[O-])n1CC(=O)Nc1cccc(C(F)(F)F)c1,-1.6
O=C(CN(C(=O)c1csnn1)c1cccc(Cl)c1)NCCc1ccccc1,-0.3
COc1ccc2[nH]c(=O)c(CNC3CCCCC3)cc2c1,0.8
CCN(CC)c1ccc2cc(C#N)c(=O)oc2c1,0.3
Cc1ccc(OCCCNCCO)c(Br)c1,-1.9
CC(C)=CC(=O)Nc1nnc(-c2ccccc2)s1,-1.2
CCOc1ccc(S(=O)(=O)N(CC(=O)O)c2ccc(C)cc2)cc1,0.4
CC(=O)N1CCN(S(=O)(=O)c2ccc(C)cc2)C1C (configuration not stated),-0.6
# (continued)
SMILES,STK33 inh
Cc1c(C(=O)NC2CCCCC2)oc2c1C(=O)CC(C)(C)C2,0.9
CN1CCN(C(=O)c2cccn(Cc3c(Cl)cccc3Cl)c2=O)CC1,0.7
Clc1ccc(-n2cc(COCc3ccccc3)nn2)cc1,-0.1
CC(C)CCCN1CCN=C1N(C)C,-0.8
CCOC(=O)c1ccc(NC(=S)N(CCCN2CCCCCC2)Cc2ccco2)cc1,0.3
Cc1ccc(S(=O)(=O)N(C)c2ccc(C(=O)NCC3CCCO3)cc2)cc1 (configuration not stated),0.0
Cc1oc(C(N)=O)nc1-c1ccccc1,-0.5
Cc1ccc(S(=O)(=O)N(C)S(=O)(=O)c2ccc(C)cc2)cc1,-0.4
COc1ccc(NC(=O)c2cc(C(C)C)on2)c(OC)c1,-1.9
Cc1cc(C(=O)NCCN2CCOCC2)ccc1[N+](=O)[O-],-1.2
COc1ccccc1NC1=CC(=O)CC(c2ccccc2)C1 (configuration not stated),0.1
CCC/C(=N\NC(=O)CNC(=O)/C=C/c1ccco1)c1ccccc1,-1.4

# 3 compounds from above, arranged by the number in STK33 inh, falling.
SMILES,STK33 inh
Cn1c(SCC(=O)N/N=C/c2cccs2)nc2ccccc21,0.2
COc1ccc(CCN2C(=O)C3CC=C(C)CC3C2=O)cc1OC (configuration not stated),-0.9
CCCCn1c(SCC(N)=O)nnc1-c1ccco1,-1.7

# Another view of 2 compounds above:
mol	STK33 inh
Cc1ccc(C)c(N2CCN(CCCc3ccccc3)CC2)c1	0.1
CCOc1ccc(N/C(C)=C\C(=O)c2ccc3c(c2)OCCO3)cc1	-0.2

# The list is partial, and most or all hits are left out here.
